# HIV Env fusion – HIV envelope-mediated fusion inhibition; hit rate 1.1% among 360,000; AID 651610; inhibition, % at 12.3 µM; HeLa-JRFL Env/CEM21 cell fusion, luciferase;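 active means mean replicate inhibition score of at least 50 and every replicate individually at or above 50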;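 further: 0% = plate neutral controls and 100% = maraviroc near 300 nM; one replicate is shown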
# Rce1 inh – blocks yeast Ras-converting enzyme; calls only; hit rate 0.27% among 290,000; Q03530; yeast membranes, quenched prenylated peptide cleavage fluorescence;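 active means fall in fluorescence gain of 50% or more versus controls, with final raw signal at or below 3038400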;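 further: plate controls were neutral control wells for no effect and wells lacking membranes for full effect; tested at 10 µM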
# Target sequence (Q03530 whole entry, looked up): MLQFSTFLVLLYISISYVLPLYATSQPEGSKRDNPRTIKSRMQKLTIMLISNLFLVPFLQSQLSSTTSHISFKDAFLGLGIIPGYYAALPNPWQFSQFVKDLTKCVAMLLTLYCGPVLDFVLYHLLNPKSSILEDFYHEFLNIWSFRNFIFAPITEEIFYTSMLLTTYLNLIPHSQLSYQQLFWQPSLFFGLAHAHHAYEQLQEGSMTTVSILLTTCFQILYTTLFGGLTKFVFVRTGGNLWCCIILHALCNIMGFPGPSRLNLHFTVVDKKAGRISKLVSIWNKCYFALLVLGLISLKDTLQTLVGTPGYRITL
# CSC inhib – blocks cancer stem cells; cancer stem cell-like cells viability, luminescence; inhibition, % at 7.5 µM; hit rate 1.1% among 300,000;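 active means mean at 75% or more and at least half the replicates too; tested in HMLE shEcad cells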;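 further: 0% = median of negative and 100% = median of positive control wells; the first replicate is given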
# UUG fidelity – alters start codon recognition fidelity in yeast; S. cerevisiae UUG-firefly luciferase reporter, luminescence/redox ratio; activity score, % at 18.7 µM; hit rate 0.13% among 350,000;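 active means replicate mean at a twofold rise or more, about +100% in these data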;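 further: firefly luciferase made from a UUG start codon reports start codon fidelity; reporter light over untreated wells divided by growth signal over untreated wells; some hits fall short of that in this replicate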
# MT1-MMP act inh – inhibitors of human MT1-MMP activation | P50281 | HT1080 RFP-PRO-GFP cells, GFP/RFP ratio fluorescence, overnight; percent of plate control window, DMSO zero | GFP/RFP ratio change, % at 20 µM | hit rate 0.061% among 360,000 | AID 651647;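 active means GFP/RFP ratio change of at least 30% with cell ATP level not reduced by more than half and red fluorescence within 50% of control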; further: strong numbers were not always called active
#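 system = RFP-PRO-GFP reporter HT1080 cells | dosing = 20 µM single dose, 1% DMSO | timing = overnight cell settling, then overnight compound exposure, 37 °C, 5% CO2 | read-out basis = GFP/RFP fluorescence ratio | controls = DMSO and RFP-L50D-GFP cell wells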
# MT1-MMP act inh RFP – further read-out of MT1-MMP act inh, marked with its call; RFP signal change, %; measured here: RFP expression control read;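 0 = vehicle wells; hits needed this value within 50% of zero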
# * = called active by the depositor; i = inactive; · = not tested or not shown.
# Sample of the layout (two entries):
SMILES,HIV Env fusion,Rce1 inh,CSC inhib,UUG fidelity,MT1-MMP act inh,MT1-MMP act inh RFP
CCC(=O)O[C@]1(C(=O)SCF)[C@H](C)C[C@H]2[C@@H]3C[C@H](F)C4=CC(=O)C=C[C@]4(C)[C@@]3(F)[C@@H](O)C[C@@]21C,·,i,-0.9,·,·,·
CCCCCCc1ccc(O)cc1O,·,i,-10.2,·,·,·

# All compounds of this part (from the top)
SMILES,HIV Env fusion,Rce1 inh,CSC inhib,UUG fidelity,MT1-MMP act inh,MT1-MMP act inh RFP
CCC(=O)O[C@]1(C(=O)SCF)[C@H](C)C[C@H]2[C@@H]3C[C@H](F)C4=CC(=O)C=C[C@]4(C)[C@@]3(F)[C@@H](O)C[C@@]21C,·,i,-0.9,·,·,·
CCCCCCc1ccc(O)cc1O,·,i,-10.2,·,·,·
Cc1cc(C)cc(OCC2CNC(=O)O2)c1 (configuration not stated),·,·,·,-12.7,1.8,3.2
COc1ccc(/C=C/C(=O)O)cc1,·,·,·,-27.6,0.4,3.5
COc1ccc(-n2[nH]c3c(cnc4ccccc43)c2=O)cc1,-29.4,·,·,·,0.2,0.6
O=C1Cc2c([nH]c3ccc([N+](=O)[O-])cc23)-c2ccccc2N1,95.6*,·,·,·,-10.3,-4.8

# Nothing new here: an excerpt of the list.
SMILES,HIV Env fusion,Rce1 inh,CSC inhib,UUG fidelity,MT1-MMP act inh,MT1-MMP act inh RFP
CCC(=O)O[C@]1(C(=O)SCF)[C@H](C)C[C@H]2[C@@H]3C[C@H](F)C4=CC(=O)C=C[C@]4(C)[C@@]3(F)[C@@H](O)C[C@@]21C,·,i,-0.9,·,·,·
CCCCCCc1ccc(O)cc1O,·,i,-10.2,·,·,·

# Entries of single compounds, quoted from the list. Order of screens: HIV Env fusion | Rce1 inh | CSC inhib | UUG fidelity | MT1-MMP act inh | MT1-MMP act inh RFP
# Record of O=C1Cc2c([nH]c3ccc([N+](=O)[O-])cc23)-c2ccccc2N1 : 95.6* | · | · | · | -10.3 | -4.8
# Record of COc1ccc(-n2[nH]c3c(cnc4ccccc43)c2=O)cc1 : -29.4 | · | · | · | 0.2 | 0.6
# Record of CCC(=O)O[C@]1(C(=O)SCF)[C@H](C)C[C@H]2[C@@H]3C[C@H](F)C4=CC(=O)C=C[C@]4(C)[C@@]3(F)[C@@H](O)C[C@@]21C : · | i | -0.9 | · | · | ·

# Only part of the results is shown, so the mix of outcomes need not match the whole.
